# Assay outcomes: PubChem BioAssay, Johns Hopkins Ion Channel Center
# KCNQ2 enhance: KCNQ2 (rat) channel potentiation. CHO-K1 KCNQ2, FluxOR thallium flux fluorescence; active compounds read high. AID 2239. 310,000 compounds, 0.54% hits. O88943. B-score at 10 µM;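 active = fluorescence ratio B-score at least 3 SD of library B-scores, with initial fluorescence B-score within 3 SD, cut at about 5.3 in these data; same plate scores as AID 2156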;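 also: B-score of peak minus minimum over baseline fluorescence ratio after K+ and Tl+ stimulus; positive B-score means potentiation of KCNQ2 with more thallium influx and brighter signal; only the inactives scoring about 0 or higher are listed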
# Target sequence (O88943 whole entry, looked up): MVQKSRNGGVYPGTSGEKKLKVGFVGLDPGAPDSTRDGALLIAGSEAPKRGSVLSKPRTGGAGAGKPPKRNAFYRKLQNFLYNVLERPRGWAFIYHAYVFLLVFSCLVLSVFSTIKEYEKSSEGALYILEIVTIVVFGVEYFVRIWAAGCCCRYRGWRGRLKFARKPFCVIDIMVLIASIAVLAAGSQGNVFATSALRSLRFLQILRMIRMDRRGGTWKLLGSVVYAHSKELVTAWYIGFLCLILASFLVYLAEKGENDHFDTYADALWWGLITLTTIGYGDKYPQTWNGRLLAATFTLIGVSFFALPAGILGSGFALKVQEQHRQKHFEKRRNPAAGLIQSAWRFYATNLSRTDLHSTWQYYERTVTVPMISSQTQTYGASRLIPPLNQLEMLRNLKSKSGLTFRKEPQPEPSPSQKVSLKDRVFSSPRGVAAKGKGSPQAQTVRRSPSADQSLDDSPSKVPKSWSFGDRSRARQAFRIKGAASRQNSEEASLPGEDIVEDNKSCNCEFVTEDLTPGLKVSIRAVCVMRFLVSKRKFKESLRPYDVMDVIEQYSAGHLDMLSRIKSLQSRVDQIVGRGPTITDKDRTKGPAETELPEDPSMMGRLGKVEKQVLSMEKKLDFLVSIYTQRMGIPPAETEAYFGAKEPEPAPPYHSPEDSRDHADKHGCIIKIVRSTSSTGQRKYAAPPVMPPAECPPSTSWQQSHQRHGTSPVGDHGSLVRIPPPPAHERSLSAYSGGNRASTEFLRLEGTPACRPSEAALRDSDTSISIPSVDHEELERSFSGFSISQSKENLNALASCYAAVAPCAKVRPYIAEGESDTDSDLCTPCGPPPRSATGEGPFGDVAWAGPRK
# KCNQ2 enhance baseline: also measured in KCNQ2 enhance; calls as there; B-score; compound at 10 µM; measured here: initial fluorescence intensity artifact check;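 brightness before thallium and not channel activity; 0 = typical well and far values either way flag optical interference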
# Active calls of the source: *; . = not tested or not shown. Some of the compounds tested, so the mix of outcomes need not match the whole.
KCNQ2 enhance baseline	KCNQ2 enhance	structure
0.82*	11*	CC(C)c1nc(SCC(=O)c2ccc(F)cc2)c2ccccc2n1
-0.8	0.73	Cc1ccc(NC(=O)c2cc(C(=O)c3cc(Cl)ccc3O)cn(-c3ccc(C)cc3)c2=O)cc1
3.4	1.4	Cc1cccc(-c2nnn(CC/C(N)=N/O)n2)c1
-1.2	0.54	CNC(=O)CN1C(=O)NC(Cc2c[nH]c3ccccc23)C1=O (centres undefined)
1.6	0.4	COc1ccc(C(C)=O)cc1COC(=O)CCNS(=O)(=O)c1ccc(C)cc1
-0.52	0.37	O=C(COC(=O)c1ccc(Cl)nc1)NCc1ccc2c(c1)OCO2
-1.8	1.4	CN(CCC1CCCCO1)C(=O)c1cc(COc2ccc(F)cc2F)on1 (centres undefined)
-1.2	0.68	Cc1ccccc1N(C(=O)CNC(=O)c1cccs1)C(C(=O)NC1CCCC1)c1ccncc1 (centres undefined)
-0.68	1.6	C=CCOC(=O)C1=C(C)NC(SCC(=O)N(CC)CC)=C(C#N)C1c1ccco1 (centres undefined)
-1.2	0.85	COc1ccc(-c2nn3cnnc3s2)cc1OC
0	1.2	O=C(Nc1ccc(S(=O)(=O)N2CCOCC2)cc1)c1ccccc1Br
0.77	1.1	CCC(=O)Nc1ccc2c(c1)nc(CN1CCCCC1)n2C
0.18	0.3	O=C(COC(=O)Cn1cnc2ccccc21)NCCc1ccccc1
1.8	0.66	CCOC(=O)C(=CNc1ccc(C#N)cc1)C(=O)OCC
0.72	1.3	COC(=O)c1c(C)oc2ccc(OC(=O)N3CCOCC3)cc12
-2.2	0.19	COC(=O)c1c(Oc2nc(OC)cc(OC)n2)cccc1Oc1nc(OC)cc(OC)n1
1.8	0.7	CC(C)(C)C(=O)Cn1ncc(NC2CC2)c(Br)c1=O
0.44	1.8	CC1C(=O)C(C)C(c2cc(Cl)ccc2O)NC1c1cc(Cl)ccc1O (centres undefined)
-0.05	0.47	Cc1onc(-c2ccccc2Cl)c1C(=O)OCn1nnc2ccccc2c1=O
-0.18	1.1	COc1ccc(C2(CNC(=O)Cc3ccc(OC)c(OC)c3)CCOCC2)cc1
0.13	0.02	CCOc1ccc(CCNS(=O)(=O)c2ccc3c(c2)NC(=O)CC(=O)N3)cc1OCC
-0.33	0.76	Cc1ccc(COC(=O)CCN=C2NS(=O)(=O)c3ccccc32)cc1
-0.49	0.33	COc1ccc(C2CC(=O)c3cnc(NC(=O)c4cccc(OC)c4)nc3C2)cc1 (centres undefined)
0.61	0.03	O=C(Nc1ccn(Cc2cccc3ccccc23)n1)c1cccnc1
.	-5.6	CC(C)(C)C(=O)OCc1nc(-c2ccc(C(F)(F)F)cc2)cs1
1.8	0.01	CCc1nnc(NC(=O)C2CCCN2C(=O)NC2CCCCC2)s1 (centres undefined)
-1.2	2.5	CC(C)CNC(=O)COC(=O)c1c2c(nc3ccccc13)CCC2
-0.13	2.2	CC1CN(C(=O)N2CCOCC2)CCN1C(=O)N1CCOCC1 (centres undefined)
-1.9	0.89	CCOC(=O)c1c(Cc2ccccc2)c[nH]c1C
0.01	1.8	CC(C)(C)c1ccc(-c2nnc(SC3CCOC3=O)n2Cc2ccccc2)cc1 (centres undefined)
-1	0.77	O=C(O)c1cc(=O)c2c(Cl)cc(Cl)cc2[nH]1
-2.2	0.98	CC(=O)Nc1ccc(NC(=O)CCn2cnnn2)cc1
0.02	0.26	COC(=O)C(Cc1ccc(O)cc1)NC(=O)CCC(=O)Nc1ccc(S(N)(=O)=O)cc1 (centres undefined)
0.14	1.2	Cc1cc(C)nc(NC(=S)Nc2ccc(Br)cc2Cl)c1
-0.04	0.85	CC(=O)c1sc(C(C)(C)C)cc1NC(=O)CCC(=O)O
-0.53	0.94	COC(=O)c1[nH]c2cc(OC)ccc2c1NC(=O)CN1CCC(C(N)=O)CC1
-3.3	1.1	Cc1c(NC(=O)C(C)N2C(=O)c3ccccc3C2=O)c(=O)n(-c2ccccc2)n1C (centres undefined)
-0.08	0.04	CCOCCCNC(=O)CN1C(=O)COc2ccc(S(=O)(=O)N3CCCC3)cc21
-1.4	0.38	COc1ccc(C(C(=O)NC2CCCCC2)N(C(=O)CCl)c2ccc(OC)cc2)cc1 (centres undefined)
0.28	0.63	COc1ccc(C(C)(C)C)cc1NC(=O)c1cncc(Br)c1
-1.4	0.28	CCCNC(=O)c1cccc(COCC(F)(F)F)c1
0.01	1.6	CCCCc1nc2cc(C(=O)NCCc3cnn(C)c3)ccc2o1
0.76	0.37	COc1ccc(C(=O)Nc2cccc(/C=C(\CCC(=O)O)c3nc4ccccc4s3)c2)cc1
-1.8	0.94	O=S(=O)(O)CCS
1.3	0.22	CCOC(=O)c1c(NC(=O)CSc2nnc(C)c(=O)[nH]2)sc2c1CCC2
0	0.28	CC(=O)Nc1cccc(NC(=O)C2CC(=O)N(C3CCCCC3)C2)c1 (centres undefined)
0.25	0.06	CCCn1nnc(NC(=O)c2ccc(OCC)c(Cl)c2)n1
0.26	1.3	COc1ccc(C(CNC(=O)/C=C/c2c(Cl)nc3ccccn23)N(C)C)cc1 (centres undefined)
0.01	0.22	CC(=O)/C(N=Nc1ccc(C(=O)O)cc1[N+](=O)[O-])=C(\C)O
-1.1	0.59	CCC(CC)C(=O)Nc1cc(NC(=O)C(CC)CC)cc(C(=O)O)c1
-1.2	0.72	Cc1ccc(Nc2nc(=O)c3cc([N+](=O)[O-])ccc3s2)cc1
-0.12	1.1	COc1ccc(S(=O)(=O)NCC2CCC(C(=O)NCCCN3CCCC3=O)CC2)cc1 (centres undefined)
-0.29	1	CCCN1CNC(=S)N(c2ccccc2C)C1
-0.65	0.2	O=C(CN1CCC(n2nnc3cc(F)ccc32)CC1)Nc1ccccc1N1CCOCC1
1.1	0.97	CCCN1CCc2c(sc(NC(=O)C3CCN(S(=O)(=O)c4cccs4)CC3)c2C(N)=O)C1
-0.72	0.22	CCOc1ccc(N/C(N)=N/c2nc(C)cc(C)n2)cc1
-1.7	0.14	CCOC(=O)c1c(NC(=S)Nc2cccc(C)c2)sc2c1CC(C)(C)SC2
2.3	0.11	Cc1ccc(NC(=O)c2ccc(CSc3nnc(-c4ccncc4)n3C)cc2)c(C)c1
-0.5	0.08	CCOc1ccc(CC(=O)N/N=C/c2cccnc2)cc1
0.17	1.1	CCN(CC)S(=O)(=O)c1cccc(C(=O)Nc2ccccc2)c1

# Next section:
KCNQ2 enhance baseline	KCNQ2 enhance	structure
-1	1.5	CC(C)c1nc2sc3c(c2c(=O)[nH]1)CC(C)(C)OC3
0.14	0.33	NC(=O)CCCn1c(C(=O)c2cc(Cl)c(N)c(Cl)c2)c2ccc([N+](=O)[O-])cc2[n+]1[O-]
0.1	1.6	COc1ccc(-c2c(NC(=O)c3ccco3)n(-c3ccc(C)cc3)nc(C)c2=O)cc1
0.89	1	CN(C)C(=O)COc1ccc2c(-c3ccccc3)cc(=O)oc2c1
-0.28	2.7	O=c1[nH]c(CCl)nc2cc(-c3ccc(Cl)cc3)sc12
-0.23	2.2	CCOC(=O)c1cccc(NC(=O)CN(C)S(=O)(=O)c2cnc[nH]2)c1
0.03	0.17	CCCCCCC(C)NC(=S)Nc1cc(S(=O)(=O)N(C)C)ccc1C (centres undefined)
1.3	1.3	COc1ccc(C(=O)NC2CC2)cc1OC1CCN(Cc2ccccc2)CC1
0.59	0.1	CCCOc1ccc(NC(=O)C2CC(=O)N(C)C(=Nc3cccc(OC)c3)S2)cc1 (centres undefined)
1.3	0.69	CN1C(=O)/C(=C/c2ccc(O)c([N+](=O)[O-])c2)N(C)C1=S
0.3	4.4	COc1ccccc1OCCNC(=O)Cc1ccc(Cl)c(Cl)c1
-0.01	0.01	C#CCNC(=O)C1=C[C@H](c2ccc(Br)cc2)C[C@H](OCCCCO)O1
0.49	1.7	NC(=O)C1CCN(C(=O)c2ccc(Oc3cc(Cl)cc(Cl)c3)o2)CC1
0.64	0.7	Cc1cccc(C(=O)N=c2sccn2C)c1[N+](=O)[O-]
-1.9	0.25	O=C(OCCCOC(=O)c1ccc(Br)o1)c1ccc(Br)o1
-0.95	0.67	Cc1onc(-c2ccccc2)c1C(=O)Nc1cccnc1
-2	0.02	CCOC(=O)c1ccc2c(c1)nc(SC/C(O)=C(\C#N)c1nc3ccccc3[nH]1)n2CC
0.3	1	COc1ccc(CCNC(=O)C2CCCN(S(=O)(=O)c3ccccc3)C2)cc1 (centres undefined)
0.55	0.75	Cc1ccc(N2CC(C(=O)Nc3nccs3)CC2=O)cc1 (centres undefined)
-0.82	0.12	COC(=O)Nc1ccc(S(=O)(=O)NCCO)cc1
0.71	0.78	CCc1nnc(NC(=O)CSc2nnc(-c3ccc(S(=O)(=O)N4CCCC4)cc3)n2CC)s1
-2.5	0.17	O=S(=O)(c1ccc(NC(=S)NCc2ccco2)cc1)N1CCCC1
-0.77	0.43	COc1ccc(OC)c(NC(=O)C2C(C(=O)O)C3(Cl)C(Cl)=C(Cl)C2(Cl)C3(Cl)Cl)c1 (centres undefined)
0.27	0.85	COc1ccc(CCNC(=O)CCCCC(=O)NCCc2ccc(OC)c(OC)c2)cc1OC
-0.03	0.71	Cc1ccc(S(=O)(=O)NN=C2C3CC4CC(C3)CC2C4)cc1[N+](=O)[O-]
0.63	0.7	O=C(N/N=C/c1sc(N2CCOCC2)nc1-c1ccccc1)c1cccc(S(=O)(=O)N2CCCC2)c1
-0.32	0.04	C/C(=N\NC(=O)c1cc(-c2ccc(O)cc2)nc2ccccc12)c1cccnc1
-0.29	2.2	Cc1cc(OCCOCCNCc2ccccc2)ccc1C(C)C
-0.15	0.01	Cc1cccc(C)c1NC(=O)COC(=O)c1cc(-c2cccnc2)nc2ccccc12
0.49	0.41	CC(=O)N1CCc2c(sc(NC(=O)CN3C(=O)CCC3=O)c2C(N)=O)C1
0.08	1.5	Cc1ccc(C(=O)N/N=C\c2ccncc2)s1
0.34	0.07	S=C1NCCOCCOCCOCCN1
-0.19	1.1	O=C(CSc1nnc(COc2ccc3c(c2)CCCC3)o1)Nc1ccc(F)cc1
-1.2	2.6	COC(=O)c1ccc2nc(C)cc(Nc3ccc(N(C)C)cc3)c2c1
-1.1	1.1	C=C(C)CSc1nc2nc(C)c(Br)cc2[nH]1
0.77	0.02	Cc1ccc(-c2cc(C(F)F)nc(N3CCC(C)CC3)n2)cc1
0.31	0.8	O=C(NCCCl)Nc1ccc(Cl)c([N+](=O)[O-])c1
-1.4	0.84	COc1ccc(S(=O)(=O)NCC2CCCN(C(=O)CSC)C2)cc1 (centres undefined)
-1.3	0.7	CCc1ccc(C(=O)OCC(=O)NC2CCCC2)cc1
-0.62	0.01	COc1ccc(OC)c(NC(=O)c2cc3c(=O)n4ccccc4nc3n2C)c1

# Reformatted as labelled records: entries from further up
mol: O=C(N/N=C/c1sc(N2CCOCC2)nc1-c1ccccc1)c1cccc(S(=O)(=O)N2CCCC2)c1
  KCNQ2 enhance baseline: 0.63; KCNQ2 enhance: 0.7
mol: CC(=O)N1CCc2c(sc(NC(=O)CN3C(=O)CCC3=O)c2C(N)=O)C1
  KCNQ2 enhance baseline: 0.49; KCNQ2 enhance: 0.41
mol: O=C(CSc1nnc(COc2ccc3c(c2)CCCC3)o1)Nc1ccc(F)cc1
  KCNQ2 enhance baseline: -0.19; KCNQ2 enhance: 1.1
mol: C/C(=N\NC(=O)c1cc(-c2ccc(O)cc2)nc2ccccc12)c1cccnc1
  KCNQ2 enhance baseline: -0.32; KCNQ2 enhance: 0.04

# Continuation.
KCNQ2 enhance baseline	KCNQ2 enhance	structure
-0.11	0.42	CC1CCN(C(=O)CSc2nc(=O)n3ccccc3n2)CC1
-0.61	0.1	Oc1ccc(Nc2nc(-c3ccccc3F)nc3ccccc23)cc1
2.2	0.74	C#CCOCCOCCOCCNc1nc(N2CCN(C(=O)[C@H](Cc3ccc(O)cc3)n3cc([C@@H](N)CC(C)C)nn3)CC2)nc(N2CCN(C(=O)[C@H](Cc3cc4ccccc4[nH]3)n3cc([C@@H](N)CC(C)C)nn3)CC2)n1
-2	1.2	COCCNC(=O)c1cccc(OC2CCN(Cc3ccc(C(=O)OC)cc3)CC2)c1
0.35	0.88	COc1ccc(C2SCC(C(=O)O)N2C(C)=O)cc1 (centres undefined)
1.1	0.78	CCOC(=O)c1c(NC(C)=O)sc2c(OC(C)=O)cccc12
1.2	0.01	Oc1ccccc1Cn1nnc2ccccc21
-1.1	1	O=C1OC(c2ccccc2)c2ccccc21 (centres undefined)
0.49	1.3	O=C(CN1CCOCC1)Nc1ccccc1-c1ccccc1
0.89	0.02	C=CCc1cccc2cc(C(=O)OCC(=O)c3ccccc3)c(=O)oc12
0.9	1.2	O=C(NCCCNC(=O)c1cnccn1)c1cccc(Cl)c1
-1.4	0.02	COc1cccc(-n2c(N)cc(=O)nc2SCC(=O)N2CCN(c3ccccc3)CC2)c1
0.42	0.45	Cc1ccc(C)c(S(=O)(=O)Nc2ccc3oc(C)c(C(=O)O)c3c2)c1
1.5	0.48	COc1ccc(C(=O)N(CN2CCCC2=O)c2cc(C)on2)cc1OC
-0.98	0.73	Cc1nc([N+](=O)[O-])c(Br)n1CC(=O)c1ccc(Br)cc1

# One compound at a time (already shown). Order of values: KCNQ2 enhance baseline	KCNQ2 enhance
# C=CCc1cccc2cc(C(=O)OCC(=O)c3ccccc3)c(=O)oc12 as listed: 0.89	0.02
# Oc1ccccc1Cn1nnc2ccccc21 as listed: 1.2	0.01
# Oc1ccc(Nc2nc(-c3ccccc3F)nc3ccccc23)cc1 as listed: -0.61	0.1
# CCOC(=O)c1c(NC(C)=O)sc2c(OC(C)=O)cccc12 as listed: 1.1	0.78
